High-throughput results: PubChem, several laboratories
Yeast UUG start – alters start codon recognition fidelity in yeast; S. cerevisiae UUG-firefly luciferase reporter, luminescence/redox ratio; activity score, % at 18.7 µM; hit rate 0.13% among 350,000;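 active means replicate mean at a twofold rise or more, about +100% in these data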;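 further: firefly luciferase made from a UUG start codon reports start codon fidelity; reporter light over untreated wells divided by growth signal over untreated wells; some hits fall short of that in this replicate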
eIF4H FP inh – inhibitors of RNA binding by human eIF4H; Q15056; eIF4H fluorescence polarization binding assay; inhibition, % at 35 µM; hit rate 0.94% among 290,000; AID 2012;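 active means 50% or more with normal probe brightness, or confirmed in later tests; inconclusive means above 50% with abnormal brightness, or retests that disagree; inactive means below 50% or failed in later tests; about a fifth of its hits are not listed in these tables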;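 further: calls also rest on retests at 20 µM and on dose response follow-up; 0% = protein and probe with vehicle and 100% = probe without protein; strong numbers were not always called active; many hits fall short of the cut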
CSC inhib – blocks cancer stem cells; inhibition, % at 7.5 µM; hit rate 1.1% among 300,000; cancer stem cell-like cells viability, luminescence;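 active means mean at 75% or more and at least half the replicates too; inconclusive means mean and replicates disagree; tested in HMLE shEcad cells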;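 further: 0% = median of negative and 100% = median of positive control wells; the first replicate is given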
MT1-MMP act inh – inhibitors of human MT1-MMP activation. P50281. HT1080 RFP-PRO-GFP cells, GFP/RFP ratio fluorescence, overnight; percent of plate control window, DMSO zero. GFP/RFP ratio change, % at 20 µM. hit rate 0.061% among 360,000. AID 651647;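 active means GFP/RFP ratio change of at least 30% with cell ATP level not reduced by more than half and red fluorescence within 50% of control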; further: strong numbers were not always called active
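Test system: HT1080 RFP-PRO-GFP cells; Benchmarks: DMSO and RFP-L50D-GFP cell wells; Timing: cells overnight before dosing, compound overnight, 37 °C, 5% CO2; Compound: one 20 µM compound dose with 1% DMSO; Read-out: GFP/RFP fluorescence ratio.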
Env fusion inh – inhibitors of HIV Env-mediated cell fusion. HeLa-JRFL Env/CEM21 cell fusion, luciferase. hit rate 1.1% among 360,000. AID 651610. inhibition, % at 12.3 µM;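 active means mean replicate inhibition score of at least 50 and every replicate individually at or above 50; inconclusive means only one of the two criteria met; inactive means mean below 50 and not all replicates reaching 50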;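 further: 0% = plate neutral controls and 100% = maraviroc near 300 nM; one replicate is shown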
Rce1 inhib – yeast Ras-converting enzyme inhibition; Q03530; yeast membranes, quenched prenylated peptide cleavage fluorescence; calls only; hit rate 0.27% among 290,000;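 active means fall in fluorescence gain of 50% or more versus controls, with final raw signal at or below 3038400; inconclusive means same 50% fall but final raw signal above 3038400; inactive means fall in fluorescence gain under 50%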;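 further: plate controls were neutral control wells for no effect and wells lacking membranes for full effect; tested at 10 µM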
Target sequence (Q03530 whole entry, looked up): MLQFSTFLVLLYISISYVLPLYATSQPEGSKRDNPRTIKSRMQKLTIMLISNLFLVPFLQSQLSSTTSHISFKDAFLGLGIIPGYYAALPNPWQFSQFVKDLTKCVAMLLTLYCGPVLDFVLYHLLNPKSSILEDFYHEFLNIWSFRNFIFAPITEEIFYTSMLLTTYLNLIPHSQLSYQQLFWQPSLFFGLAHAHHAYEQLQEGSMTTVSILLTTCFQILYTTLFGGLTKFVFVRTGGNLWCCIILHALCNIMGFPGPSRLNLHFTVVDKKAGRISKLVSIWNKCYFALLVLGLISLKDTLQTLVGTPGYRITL
PABP polyA inh – blocks human PABP binding to poly(A) RNA. P11940. fluorescence polarization. inhibition, % at 35 µM. hit rate 1% among 290,000. AID 2014;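 active means 50% or more with normal probe brightness, or confirmed in later tests; inconclusive means above 50% with abnormal brightness, or retests that disagree; inactive means below 50% or failed in later tests; about a fifth of its hits are not listed in these tables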;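 further: calls also rest on retests at 20 µM and on dose response follow-up; controls were probe without protein and protein plus probe with vehicle; some compounds called inactive have numbers as strong as hits; many hits fall short of the cut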
Target sequence (P11940 whole entry, looked up): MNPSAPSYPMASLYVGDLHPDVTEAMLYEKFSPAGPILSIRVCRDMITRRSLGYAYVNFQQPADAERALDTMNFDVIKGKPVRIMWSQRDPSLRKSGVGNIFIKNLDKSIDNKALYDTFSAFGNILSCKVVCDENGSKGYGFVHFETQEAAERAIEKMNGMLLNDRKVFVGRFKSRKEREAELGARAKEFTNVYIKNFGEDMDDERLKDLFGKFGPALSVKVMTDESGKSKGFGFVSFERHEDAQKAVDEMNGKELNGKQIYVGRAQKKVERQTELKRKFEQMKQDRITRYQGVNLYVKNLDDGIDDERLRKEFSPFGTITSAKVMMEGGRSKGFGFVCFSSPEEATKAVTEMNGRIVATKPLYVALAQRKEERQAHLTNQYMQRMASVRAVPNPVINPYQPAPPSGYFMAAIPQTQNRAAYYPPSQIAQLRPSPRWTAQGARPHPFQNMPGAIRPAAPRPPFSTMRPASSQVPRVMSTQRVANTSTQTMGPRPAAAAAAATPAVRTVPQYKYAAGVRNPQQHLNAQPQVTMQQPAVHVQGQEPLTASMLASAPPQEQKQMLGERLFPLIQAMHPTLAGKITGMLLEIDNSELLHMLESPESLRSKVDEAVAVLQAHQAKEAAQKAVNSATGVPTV
MT1-MMP act inh RFP – further read-out of MT1-MMP act inh, marked with its call; RFP signal change, %; measured here: RFP expression control read;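 0 = vehicle wells; hits needed this value within 50% of zero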
* hit, by the source's call; i = inactive; ? = inconclusive; . = not tested or not shown; & = joins results of further samples.

SMILES | Yeast UUG start | eIF4H FP inh | CSC inhib | MT1-MMP act inh | MT1-MMP act inh RFP | Env fusion inh | Rce1 inhib | PABP polyA inh
Cc1cc(/C=C(\C#N)C(=O)N2CCCCC2)cc(C)c1O | -11 | 7 | 40 | -7 | -10 | -52 | i | 9
COc1cc(NC(=O)CN2C(=O)C(C)N(c3ccc(C)cc3)C2=O)cc(OC)c1 (stereo not given) | -8 | . | -6 | 4 | -2 | -13 | i | .
Cn1ncc(C#N)c1NC(=O)C1CC(c2ccc(Cl)c(Cl)c2)=NO1 (stereo not given) | -14 | -5 | -18 | -3 | -5 | 44 | i | -4
CCCCNC(=O)CN1C(=O)NC2NC(=O)NC21 (stereo not given) | 4 | 3 | -7 | 0 | 6 | 5 | i | -5
CCCCNC(=O)[C@@H]1CC=C[C@@H]2CCN(Cc3ccc(Cl)c(Cl)c3)C(=O)[C@@H]21 | 8 | . | 7 | 1 | -12 | 35 | i | .
CC(C)(C)c1ccc(C(=O)NCc2ccco2)cc1 | -4 | . | -1 | 5 | 2 | -196 | i | .
CN=c1scc(-c2ccccc2F)n1/N=C/c1ccc[nH]1 | . | 7 | 32 | -3 | 6 | 67* | i | 7
Cc1cc(C)cc(-c2nnc(SCC(=O)NC3CC3)o2)c1 | -17 | . | -2 | -1 | 4 | 0 | . | .
CCN1C(=O)c2ccccc2S(=O)c2ccc(C(=O)N3CCN(C(=O)c4ccco4)CC3)cc21 (stereo not given) | -7 | 0 | 4 | 4 | 8 | -9 | i | -14
Cc1ccc(N2CC(C)Cn3c2nc2c3c(=O)n(CC(=O)OCc3ccccc3)c(=O)n2C)cc1C (stereo not given) | -14 | -8 | 33 | -3 | -3 | ? | i | -13

Of the compounds above, two contain a furan ring, fused or not.
SMILES | Yeast UUG start | eIF4H FP inh | CSC inhib | MT1-MMP act inh | MT1-MMP act inh RFP | Env fusion inh | Rce1 inhib | PABP polyA inh
CC(C)(C)c1ccc(C(=O)NCc2ccco2)cc1 | -4 | . | -1 | 5 | 2 | -196 | i | .
CCN1C(=O)c2ccccc2S(=O)c2ccc(C(=O)N3CCN(C(=O)c4ccco4)CC3)cc21 (stereo not given) | -7 | 0 | 4 | 4 | 8 | -9 | i | -14

Other structures follow:
SMILES | Yeast UUG start | eIF4H FP inh | CSC inhib | MT1-MMP act inh | MT1-MMP act inh RFP | Env fusion inh | Rce1 inhib | PABP polyA inh
COc1cccc(CN(C)C(=O)C2CC(=O)N(c3ccc4c(c3)OCCO4)C2)c1 (stereo not given) | . | . | -10 | 3 | 4 | . | i | .
COc1ccc(/C(C)=N/NC(=O)CNC(=O)c2ccco2)cc1 | . | 1 | -16 | -2 | 1 | -7 | i | -3
Cc1nc(N2CCOCC2)sc1C(=O)NN | . | 0 | -2 | -3 | 0 | -2 | i | 18
COc1ccc(Cn2nnnc2C(c2ccccc2Cl)N2CCC(C(N)=O)CC2)cc1 (stereo not given) | -4 | -1 | -13 | -1 | 5 | -83 | i | 1
COC(=O)c1ccc(NC(=O)Cc2ccccc2)cc1 | . | -7 | 9 | 2 | 3 | -33 | i | 0
COc1ccc(NC(=O)CCN2CCCCCC2)cc1 | 1 | -10 | 2 | 0 | 2 | -43 | i | 5
Cc1cc(C(=O)NCCCOC(C)C)c2ccccc2n1 | -2 | -1 | 2 | 4 | 7 | . | i | -3
Cc1c(C)c2ccc(OCC(=O)N3CCC[C@@H]3C(=O)O)c(C)c2oc1=O | -15 | -10 | -9 | 3 | 5 | . | i | 16
O=C(c1ccc2nc[nH]c2c1)N1CCc2ccccc2C1 | -19 | -1 | 17 | -3 | 2 | 3 | i | -13
CCCCN=Cc1c(C)[nH]n(-c2ccccc2)c1=S | . | -11 | 17 | 6 | 3 | 17 | i | 0
CCOc1ccc(C(=O)OC2CCN(C)CC2)cc1 | -10 | -3 | 60 | -6 | -2 | . | i | 13
O=C(OC(C(=O)NCc1cccs1)c1ccccc1F)c1ccco1 (stereo not given) | -14 | 3 | -14 | 2 | 1 | 57 | . | 0
COc1ccc(C(=O)C2CCCN(Cc3ccc4nonc4c3)C2)c(OC)c1 (stereo not given) | -4 | 1 | 2 | -4 | -7 | 26 | i | 4
Cc1cc2c(SCC(=O)Nc3cccc(O)c3)ncnc2s1 | -20 | . | . | -7 | 2 | -2 | . | .
COc1ccc(CCNC(=O)[C@H](C)NC(=O)[C@@H]2CSC3c4ccccc4C(=O)N32)cc1 (stereo not given in full) | -13 | 8 | -13 | -2 | -1 | 1 | i | -4
CC(OC(=O)c1ccc(NS(=O)(=O)c2ccc3[nH]c(=O)[nH]c3c2)cc1)C(=O)Nc1ccc(Cl)cc1 (stereo not given) | . | 0 | -9 | 4 | 5 | 9 | i | -14
COc1cccc(OCc2cc(C(=O)N3CCN(c4ccccc4OC)CC3)no2)c1 | -11 | -1 | 5 | 15 | 4 | -23 | i | -7
Cc1cc(C(=O)CSc2nnc(-c3ccco3)o2)c(C)n1-c1ccc2c(c1)OCCO2 | -21 | 2 | -4 | -1 | -12 | . | i | 14
COc1cc(OC)c(OC)cc1/C=N/Nc1ncnc2c1[nH]c1ccccc12 | -1 | 2 | 25 | -1 | -2 | -83 | i | -20
CCOc1ccc(N2CC(C(=O)Nc3ccc(F)cc3F)CC2=O)cc1 (stereo not given) | -8 | 1 | 2 | 5 | 7 | -2 | i | -4
Cc1cc(=O)[nH]c2ccc(S(=O)(=O)Nc3ccc(O)cc3)cc12 | -8 | 12 | . | -2 | 4 | -5 | i | 12
COc1ccc(NC(=O)Nc2ccc3c(c2)C(=O)N([C@H](C)CO)C[C@H](C)[C@H](CN(C)Cc2ccc(C(=O)O)cc2)OCCCC[C@@H](C)O3)cc1 | 10&-5 | . | . | -5 | 0 | -43 | . | .
O=C(NCc1ccco1)C12CN(Cc3ccccc3)CC1C(c1ccc([N+](=O)[O-])cc1)=NO2 (stereo not given) | -10 | -10 | -5 | -2 | -3 | -8 | i | -5
CCOC(=O)N1CCC(NC(=O)c2oc3c(F)cccc3c2C)CC1 | 1 | -6 | -2 | 2 | 0 | -34 | i | 0
Cc1csc(=O)n1CC(=O)OCc1nnc(-c2ccc(Cl)cc2)o1 | -3 | . | 0 | 2 | -1 | -12 | . | .
CCCCNc1cc(=O)oc2ccccc12 | . | 2 | . | 2 | -7 | 4 | i | 3
CC(=O)N1CCN(S(=O)(=O)c2cccc(C(=O)NNC(=O)Cn3nc(C)cc3C)c2)CC1 | -19 | . | . | 9 | -7 | 33 | . | .
CCOC(=O)c1ccccc1NC(=O)c1ccccc1NS(C)(=O)=O | 0 | 8 | 3 | -3 | -3 | . | i | 23
Cc1cccc2cc(CN(Cc3ccco3)C(=O)c3ccco3)c(=O)[nH]c12 | -7 | 3 | -36 | 0 | 2 | 0 | i | 5
Cc1ccc(C(=O)N/C(=C/c2cccs2)C(=O)NCc2ccco2)cc1 | -14 | -8 | -15 | 7 | 7 | -7 | i | 7
O=C(c1ccc2c(c1)OCO2)N1CCC2(CC1)Oc1ccc(Cl)cc1C(=O)C21CC(c2ccccc2)=NO1 (stereo not given) | -4 | 10 | 21 | -2 | -1 | 8 | i | 10
Cc1ccc(NC(=O)CCC(=O)N/N=C/c2cccs2)cc1C | . | -2 | -3 | 1 | 3 | . | i | -3
CSc1ccc(S(=O)(=O)Nc2ccc(NC(C)=O)cc2)cc1 | -5 | -4 | -2 | 9 | -4 | . | i | -9
COc1cccc(C(=O)NCC(=O)NCc2cc(=O)n(C)c(=O)n2C)c1 | -8 | -4 | -12 | 0 | -1 | 0 | i | -6
CCOC(=O)Cc1nn(C)c(=O)c2ccccc12 | -11 | -9 | 0 | 4 | -5 | . | i | 1
CNC(=O)c1ccsc1NC(=O)CN1C(=O)CCC1=O | -23 | -7 | -8 | 0 | 5 | -15 | i | 8
O=C(CSc1ccc(Cl)cc1)Nc1cccc(-c2nnc(-c3ccco3)o2)c1 | -16 | -3 | 10 | 9 | -7 | 6 | i | -4
CC(C)C(=O)NC(=O)COC(=O)/C=C/c1cccs1 | -21 | 5 | -7 | 2 | 2 | 12 | i | 6
O=C(NC(=O)c1ccccc1Cl)Nc1ccc(-c2cnco2)cc1 | . | -8 | -2 | 6 | 5 | -18 | i | 5
CCCC(=O)Nc1ccc(N2CCN(C(=O)c3cc4ccccc4o3)CC2)cc1 | -4 | 2 | 47 | 5 | 2 | 3 | i | 5
O=C(Nc1ccc2c(c1)OCCO2)C1CCN(C(=O)c2ccc([N+](=O)[O-])cc2)CC1 | -2 | 4 | -9 | 1 | 5 | -2 | i | -12
Oc1ccc(-n2cccc2/C=N/n2cnnc2)cc1 | . | -11 | -8 | -3 | 4 | -29 | i | -10
CCCNC(=O)C1(C)CCCN(Cc2cccc(C(F)(F)F)c2)C1 (stereo not given) | 3 | . | . | -5 | -4 | 2 | . | .
CCc1c(O)c(/C(C)=N\O)c(=O)n(-c2ccccc2)c1-c1ccccc1 | -13 | -2 | 0 | 5 | 5 | 7 | i | 1
C[C@H]1COC(=O)[C@H](Cc2ccc(F)cc2)CC/C=C/C[C@@H](CC(=O)N[C@@H](CO)Cc2ccccc2)C(=O)N1 | 2 | . | -9 | -2 | -3 | -15 | . | .
CC(=O)N[C@H]1[C@H](Oc2ccc3c(c2)CCC2C3CC[C@]3(C)C(=O)CCC23)O[C@H](CO)[C@@H](O)[C@@H]1O (stereo not given in full) | -12 | -2 | -1 | -2 | -1 | 15 | i | 3
O=C(O)c1cccc(Nc2nc3ccccc3nc2NS(=O)(=O)c2cccs2)c1 | -13 | 2 | -15 | . | . | 4 | i | 11
CCCn1c(=O)c2ccccc2n2c(SCc3nc4ccccc4s3)nnc12 | -25 | 11 | -13 | -15 | 4 | -111 | i | 17
c1ccc(N2CCOCCOCCOCCOCC2)cc1 | . | -8 | -7 | -1 | 3 | -31 | i | -1
COc1cc(C(=O)NCCc2ccccc2)ccc1OCC(=O)N1CCOCC1 | 2 | . | -3 | -1 | -4 | . | . | .
Next part
SMILES | Yeast UUG start | eIF4H FP inh | CSC inhib | MT1-MMP act inh | MT1-MMP act inh RFP | Env fusion inh | Rce1 inhib | PABP polyA inh
Cc1cccc(/C=C(\C(=O)C(=O)O)c2ccc3ccccc3n2)c1 | -33 | -6 | -6 | -4 | 5 | -55 | i | 1
COc1ccc(CCNC(=O)CNC(=O)Cn2ccc3ccccc3c2=O)cc1OC | 5 | -4 | -16 | 2 | 3 | 0 | i | 6
CC[C@@H]1CCC[C@@H](O)[C@@H](C)C(=O)O[C@H](C)[C@@H](C)C/C=C(C)/C(OC)=C\C(=O)N(C)C([C@@H](C)CC)C(=O)N(C)[C@@H](C(C)C)C(=O)N(C)[C@@H](COC)C(=O)N2CCC[C@H]2C(=O)N(C)[C@@H](C(C)C)C(=O)N2CCC[C@H]2C(=O)O1 (stereo not given in full) | 15 | . | . | -20 | -45 | 20 | . | .
COc1cccc(N=Cc2c[nH][nH]c2=O)c1 | -25 | -4 | 36 | 3 | 1 | -32 | . | -6
COc1ccccc1CNC(=O)C1CCN(C(=O)[C@@H]2Cc3ccccc3CN2)CC1 | -11 | -2 | -12 | -3 | -3 | -3 | i | 0
CCCOc1ccc(-c2nnn(CC(=O)Nc3cccc(C(=O)OC)c3)n2)cc1 | -14 | 8 | -6 | -5 | -3 | -9 | i | -6
COc1cc2c(cc1OC)/C(=C/C(=O)c1ccc(C)cc1)NCC2 | -2 | 12 | -1 | 4 | 3 | -1 | i | -7
CCOc1ccc(CNC(=O)CCC(=O)N2CCSc3ccccc32)cc1 | -6 | -5 | -6 | -3 | 0 | -20 | i | -2
CCc1cc2c(=O)n(-c3ccc(Br)cc3)cnc2s1 | -10 | -14 | -8 | 1 | -1 | -69 | i | 4
CC(C)Cc1ccc(CN2CCC(n3nccc3NC(=O)C3CCCC3)CC2)cc1 | 23 | 0 | -9 | 5 | -3 | 20 | i | 6
